NPYLR7 agonist = mosquito NPYLR7 agonism | 270,000 compounds, 0.15% hits | activation, % at 10 µM | AID 1259423 | HEK293T NPYLR7/Galpha15, GCaMP6s calcium fluorescence; in the data active = activation above about 40%;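 also: 0% = vehicle and 100% = reference agonist at the receptor; some compounds past the cut are filed as inactive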
NPYLR7 agonist max-min = second read-out of NPYLR7 agonist, no call of its own (marks repeat the call); activation, %; measured here: Max-Min RFU normalised activation; some inactives read as strong as hits;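 span of the calcium signal over five minutes; 0% = vehicle and 100% = native peptide agonist; compound fluorescence can raise it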
* hit, by the source's call; & = joins results of further samples. The list is partial; count on the stated rates, not on these rows.

compound	NPYLR7 agonist max-min	NPYLR7 agonist
Fc1ccc(Cl)c(CSc2nnc(-c3cc(-c4ccccc4)nc4ccccc34)n2CC2CCCO2)c1 (centres undefined)	-3	3
CCCCOC(=O)C1CSC(CC(C)C)N1C(=O)c1cccs1 (centres undefined)	15	22
O=C1O[C@@H]2C[C@H]3C[C@@H]2[C@@H]1[C@H]3C(=O)N1CCCCC1	2	3
COc1ccc(CCn2c(-c3cc(OC)c(OC)c(OC)c3)nc3ccc(Br)cc3c2=O)cc1	1	6
COc1ccc(-c2noc(CN(C)C3CCCCC3)n2)cc1	-10	-7
COc1cc(C(=O)NC2CCN(C(C)C)CC2)ccc1OCc1ccccc1	6	9
Cc1oc(-c2ccc(NC(=O)Cc3ccccc3)cc2)nc1CNC(=O)C1CCCO1 (centres undefined)	4	6
CCOc1ccc(-c2ccnc(N3CCN(C(=O)c4cc(OC)cc(OC)c4)CC3)n2)cc1	5	8
Cc1cc2c(SCC(=O)Nc3ccc4c(c3)OCCO4)ncnc2s1	-6	-2
CCCc1[nH]ncc1C(=O)N1CCOC(Cc2ccccc2Cl)C1 (centres undefined)	-2	2
COCCCNC(=O)c1c(O)nc2c(C)cccn2c1=O	12	1
NC1=NC(c2ccco2)n2c(nc3ccccc32)N1 (centres undefined)	3	7
CCOCCn1c(SCc2ccc(Cl)cc2)nc2c1c(=O)[nH]c(=O)n2C	4	10
O=C(Cn1ncc(=O)c2ccccc21)Nc1cccc2ccccc12	10	4
CC(C)N1CCCC(N2CCN(C(=O)OC(C)(C)C)CC2)C1 (centres undefined)	0	2
COCCN(Cc1cc(Cl)ccc1OS(C)(=O)=O)C(=O)c1ccccc1Cl	8	3
Cc1ccccc1N1CC(c2nc3ccccc3n2CC(C)C)CC1=O (centres undefined)	13	7
C1CCC(OCC2CCNCC2)C1	-8	-9
CCCCOc1ccc(C(=O)N2CCCC(C(=O)NC3CCCC[C@H]3NC(=O)c3ccccc3)C2)cc1 (some centres undefined)	16	20
O=C(C1CCC1)N1CCN(c2nc(Cc3ccccc3)nc3onc(-c4cccc(Oc5ccccc5)c4)c23)CC1	6	15
CCN(CC)Cc1cnc2c(C(=O)N3CCCC(Cn4ccnc4)C3)cnn2c1 (centres undefined)	-5	-5
CCCNC(=O)COc1cccc2c(=O)n(CCOCC)ccc12	12	-2
COc1ccc(/C=C2\C(=O)N(c3nc(-c4ccc(Br)cc4)cs3)N=C2c2ccccc2)cc1	15	5
CCCCCCc1ccc(C(=O)Nc2ccc(N(C)C)c(C(=O)NCCCOC)c2)cc1	5	3
O=C(Nc1cccc(-c2cc3ccccc3[nH]2)c1)C1CCN(C(=O)C2CC23CCC3)CC1 (centres undefined)	2&1	3&4
CN(C)CCN(Cc1ccccc1)c1ccccn1	-6&-18	-4&-14
Cc1c(C)n2c3c(=O)n(CCCc4ccccc4)c(=O)n(C)c3nc2n1C(C)C	8	2
CCSCC(C)NC1CCN(S(C)(=O)=O)CC1 (centres undefined)	5	6
CC[N+](C)(C)Cc1ccccc1Br	-8&-8	-1&4
CCC1SC(c2ccccc2OC)N(CCN(C)C(=O)Nc2ccc(C(F)(F)F)cc2)C1=O (centres undefined)	-13	-5
C=C1[C@H](OC(C)=O)[C@H]2[C@@H](OC(C)=O)C(C)C[C@]2(OC(C)=O)C(=O)[C@H](C)/C=C/C(C)(C)C(=O)[C@H](OC(=O)C(C)C)[C@H]1OC(C)=O (some centres undefined)	-21	-13
CCC(=O)Nc1sc2c(c1C(=O)Nc1ccc(OC)cc1)CCCC2	-5	-1
Cc1ccc(Cn2c(=O)c3c(nc4n3CCCN4Cc3ccco3)n(C)c2=O)cc1	-3	5
Cc1cnc(CNC(=O)c2c(C)noc2-c2cccs2)cn1	4	-4
Cc1ccc(NC(=O)C2(C)CCN2C(=O)CC2CC2)cc1C (centres undefined)	0	3
CCOC(=O)N=c1scc(-c2ccccc2)n1-c1cccc(Oc2ccccc2)c1	-11	-8
CN(Cc1ncc[nH]1)C(=O)c1ccccc1Oc1ccccc1	1	2
CCCCCc1ccc(C(=O)N(CC(=O)N2CCc3sccc3C2c2ccc(Cl)cc2Cl)C2CC2)cc1 (centres undefined)	25	26
N#CCc1c(C#N)c(N)nc(N2CCCC(CO)C2)c1C#N (centres undefined)	9	11
Cc1ccc(C2CC(c3ccc(Cl)cc3Cl)n3ncnc3N2)cc1 (centres undefined)	-3	2
CCOC(=O)c1cc(-c2ccc(N3CCN(C(=O)COc4cccc(Cl)c4)CC3)cc2)n(-c2cccc(F)c2)n1	19	21
C=CCn1c(SCc2cccc(C)c2)nnc1C1CCCCC1	-4	-12
CNS(=O)(=O)c1ccc(N)cc1	-1	0
O=[N+]([O-])c1ccccc1CN1CCCn2cccc2C1c1ccc(F)cc1 (centres undefined)	14	20
CCOC(=O)c1ccc(CSc2nc3cc(S(=O)(=O)N4CCOCC4)ccc3n2CC2CCCO2)o1 (centres undefined)	-1	6
O=C(CCN1C(=O)c2ccc([N+](=O)[O-])cc2C1=O)Nc1cccc(O)c1	-14	-7
O=S(=O)(c1cccc2ccccc12)N1CCN(C(c2ccccc2)c2ccc(Cl)cc2)CC1 (centres undefined)	27	24
CNC(=O)c1cccc(NC(=O)Cc2ccccc2C)c1	0	0
CCCCCCc1ccc(C(=O)Nc2ccc(N3CCCC3)c(C(=O)NC(C)C)c2)cc1	-4	-6
O=C(O)COc1ccccc1/C=N\NC(=O)CSc1nnc(-c2ccccc2)n1-c1ccccc1	4	-6
CCC(C)(NC(=O)Nc1cccc(C(=O)NC)c1C)c1nccs1 (centres undefined)	-9	-5
Cc1nc2c(-c3ccccc3)cnn2c(Nc2ccncc2)c1C	5	2
CCc1nnsc1C(=O)N1CCCC1c1c(C)noc1C (centres undefined)	-1	-2
O=C(Cn1cnc2sccc2c1=O)N(C1CCCC1)C1CCS(=O)(=O)C1 (centres undefined)	5	-1
O=C1c2cccc(O)c2C(=O)c2c(O)cc(CO)cc21	-4	1
C=CCNC(=O)C(NC(=O)c1cccc(OC)c1)C1CCN(C(=O)c2cccc(F)c2)CC1 (centres undefined)	7	8

(cont.)
compound	NPYLR7 agonist max-min	NPYLR7 agonist
O=C(NCCC12CC3CC(CC(C3)C1)C2)c1ccc2c(=O)n3c(nc2c1)CCCCC3	2	6
Cc1ccc(NC(=O)CNc2nccc(CCC(F)(F)F)n2)c(F)c1	-4	-3
COc1ccc(-n2c(SCC(=O)Nc3cc(C)cc(C)c3)nc3c(c2=O)SCC3)cc1OC	-8	-6
CCOC(=NCCN1CCCC1)NC(=O)c1cccc(OC)c1	4	-1
CCCCCOc1ccc(-c2cc(C(=O)N/N=C\c3cccnc3)[nH]n2)cc1	6	4
CCCCCNC(=O)Cn1c(-c2ccc(-c3ccccc3)o2)nc(C)c1C	15	18
N[C@@H]1CC[C@@H](NC(=O)CCCc2cn[nH]c2)C1	-3	6
CCOC(=O)C1CCCN(C(=O)c2nn(-c3cccc(C)c3)c(=O)n(Cc3cccc(C)c3)c2=O)C1 (centres undefined)	11	12

Molecules from the list above containing two or more sulfur atoms (six):
compound	NPYLR7 agonist max-min	NPYLR7 agonist
CCCCOC(=O)C1CSC(CC(C)C)N1C(=O)c1cccs1 (centres undefined)	15	22
Cc1cc2c(SCC(=O)Nc3ccc4c(c3)OCCO4)ncnc2s1	-6	-2
CCSCC(C)NC1CCN(S(C)(=O)=O)CC1 (centres undefined)	5	6
CCOC(=O)c1ccc(CSc2nc3cc(S(=O)(=O)N4CCOCC4)ccc3n2CC2CCCO2)o1 (centres undefined)	-1	6
O=C(Cn1cnc2sccc2c1=O)N(C1CCCC1)C1CCS(=O)(=O)C1 (centres undefined)	5	-1
COc1ccc(-n2c(SCC(=O)Nc3cc(C)cc(C)c3)nc3c(c2=O)SCC3)cc1OC	-8	-6

Later entries:
compound	NPYLR7 agonist max-min	NPYLR7 agonist
COc1cccc(NC(=O)C2(C)CCN2Cc2ccc(-c3ccccc3)o2)c1 (centres undefined)	2	8
c1csc(C2Nc3ccccc3-c3nc4ccccc4n32)c1 (centres undefined)	-2	1
O=C(NCCc1cccc(Cl)c1)c1cc2ccccc2oc1=O	4	2
CC(Sc1ccc(F)c(Cl)c1)C(=O)NC(C)(C)C (centres undefined)	6	10
COc1ccc(C)cc1NC(=O)NCCNc1cc(-n2ccnc2C)nc(C)n1	-21	-14
COc1ccc(C)cc1NC(=O)CNC(=O)CN(C)Cc1sccc1C	1	3
N#Cc1ccc(S(=O)(=O)N(CC(=O)Nc2ccc3c(c2)OCCCO3)C2CC2)cc1	16	21
CC(C)N(CC(N)=O)S(=O)(=O)c1ccc(C(F)(F)F)cc1	-6	-5

Another view of part of the listing above:
> O=C(NCCc1cccc(Cl)c1)c1cc2ccccc2oc1=O
  NPYLR7 agonist max-min = 4 | NPYLR7 agonist = 2
> COc1cccc(NC(=O)C2(C)CCN2Cc2ccc(-c3ccccc3)o2)c1 (centres undefined)
  NPYLR7 agonist max-min = 2 | NPYLR7 agonist = 8

Further compounds:
compound	NPYLR7 agonist max-min	NPYLR7 agonist
COc1ccc(/C=C2/C(=O)N(c3ccccc3)N=C2C)cc1Br	13	3
COCc1ccc(C(=O)N2CCN3CCNC(=O)C3C2)s1 (centres undefined)	4	6
COc1ccc(F)cc1C(=O)C1CCCN(Cc2cc(OC)c3c(c2)OCO3)C1 (centres undefined)	8	17
O=C(c1ccc2c3c(cccc13)CC2)C1CCCN(C(=O)c2ccc3c(c2)no[n+]3[O-])C1 (centres undefined)	3	16
CC(C)(C)c1cc(NC(=O)CN(Cc2ccccc2)C(=O)Nc2cccc(F)c2)n(-c2ccccc2Cl)n1	6	-2
O=C1C(NS(=O)(=O)c2ccc(F)c(F)c2)CCN1Cc1ccccc1 (centres undefined)	-7	-5
COc1ncccc1CNC(=O)C1CC1c1cccc(F)c1F (centres undefined)	-5	-6
O=C(c1ccc(NCC2CCOC2)nc1)N1CCC(CCc2ccccc2)CC1 (centres undefined)	2	3

3 structures already listed, ordered by length of the SMILES, largest number first.
compound	NPYLR7 agonist max-min	NPYLR7 agonist
CCCCCCc1ccc(C(=O)Nc2ccc(N3CCCC3)c(C(=O)NC(C)C)c2)cc1	-4	-6
Cc1c(C)n2c3c(=O)n(CCCc4ccccc4)c(=O)n(C)c3nc2n1C(C)C	8	2
CNS(=O)(=O)c1ccc(N)cc1	-1	0

(continued)
compound	NPYLR7 agonist max-min	NPYLR7 agonist
COC(=O)c1ccc(C)c(NC(=O)c2ccc(N(Cc3ccccc3C)S(C)(=O)=O)cc2)c1	8	10
CC(Oc1ccccc1)C(=O)N(Cc1ccc(F)cc1)Cc1nc2cc(Cl)ccc2o1 (centres undefined)	14	14
O=C1c2ccccc2C2=Nc3ccccc3S(=O)(=O)C(c3ccc(Cl)cc3)C12 (centres undefined)	4	9
COCCn1cc(C(=O)N2CCN(CC(=O)N3CCCC3)CC2)c2nn(-c3ccccc3)c(=O)c-2c1	-8	-4
O=C(NC1CC2CCC(C1)N2CC1CCCO1)c1c(Cl)cc(Cl)cc1Cl (centres undefined)	4	1
Cc1cnc(C(=O)N2CCN(c3ccccc3Cl)CC2)cn1	3	6
C=C(C)Cn1c(=O)c2c(nc3n2CCN3c2cccc(OC)c2)n(C)c1=O	1	2
Cc1c(C(=O)NCCCO)c(C(F)(F)F)nn1C1CCCN(C(C)C)C1 (centres undefined)	-2	8
CC1=CC(C)(C)[N+](C)=CN1c1ccccc1	-6	-7
C=CCn1c(SCc2cc(C)ccc2C)nnc1-c1ccc(OC)cc1	24	15
CCN(C(=O)COC(=O)c1ccc(C(C)C)cc1)c1ccccc1	6	10
O=P1(NN=Cc2c(O)ccc3ccccc23)C=C(c2ccccc2)OC(c2ccccc2)=C1	4	4
COc1cc(OC)cc(C(=O)NCC2CCCN(C(=O)C3=CCCC3)C2)c1 (centres undefined)	8&-2	10&1
Cc1nc(C#N)c(NCc2ccccc2Cl)o1	-15	-13
CCOCCCNC(=O)c1cc(NC(=O)/C=C/c2ccccc2)ccc1N1CCN(c2ccccc2OC)CC1	16	16
CCCc1cc(=O)n2c(nc3ccccc32)[nH]1	-4	-3
CSc1ccc(CN(C(=O)c2cccc(-c3noc(C)n3)c2)C2CC2)cc1	-13	-4
CCc1cccc(NC(=O)Cn2nc(-c3ccccc3)oc2=O)c1	6	8
O=C1NCCCCC1NC(=O)C1CC1(c1ccccc1)c1ccccc1 (centres undefined)	-4	-3
CC(C)(C)c1nnnn1CC(O)c1ccc(C(F)(F)F)cc1 (centres undefined)	1	4
CCCCCNC(=O)c1ccc(-n2nc(-c3cccc(C)c3)cc2N)cc1	-20	-10
O=c1c2cc3c(=O)n(CC4CCCO4)ccc3nc2ccn1CCO (centres undefined)	-1	1
COC1CCN(C(=O)c2ccc(C)cc2)CC(=O)N(C)c2ccccc21 (centres undefined)	7	-3
Cc1ccc(O)c(CN(Cc2ccco2)C(C)C(C)C)n1 (centres undefined)	5	5
COc1ccccc1C(=O)C1CCCN(C(=O)CN2C(=O)c3ccccc3C2=O)C1 (centres undefined)	10&0	19&1
CCCCc1ccc(S(=O)(=O)N2CCCN(c3nc4ccccc4nc3C(=O)OCC)CC2)cc1	1	1
COc1ccc(CNC(=O)CCN2Cc3ccccc3OC(c3ccccc3F)C2)cc1OC (centres undefined)	2	3
Cc1ccc(CC(C)N(C)S(=O)(=O)CCCC#N)cc1 (centres undefined)	-20	-20
CCOC(=O)C1CCCN(C(=O)c2nn(-c3ccccc3F)c(=O)n(CC)c2=O)C1 (centres undefined)	18	13
COc1cccc(CNC(=O)c2cc(-c3ccc4c(c3)OCO4)nc3ccccc23)c1OC	-3	9
Cc1nc(C(=O)NC2(C(N)=O)CCCC2)cs1	-11	-2
COc1cc(OC)cc(C(=O)Nc2cc3c4c(c2)C(C)C(=O)N4CCC3)c1 (centres undefined)	6	10
C=CCn1c(Sc2ccccc2)nc2c1c(=O)[nH]c(=O)n2C	-5	1

Source: PubChem BioAssay
